Measles inh – inhibitors of measles virus growth in infected cells | infected Vero cells, GFP fluorescence, 64 h; stronger effect = lower value | z-score (no concentration beside the values) | 33,000 compounds, 0.1% hits | AID 745;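 active = z-score under -3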;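 note: score is relative to mean and SD of the compound wells of a plate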
Starred values were filed as active, the others as inactive. An excerpt; the hit share may differ from the screen's.

Compound,Measles inh
O=C(NCc1n[nH]c(=S)n1-c1cccc(Cl)c1)c1ccccc1F,-0.74
CN(C)c1ccc(NC(=O)CN2CCN(CC(=O)Nc3ccccc3Cl)CC2)cc1,-0.21
CCCCOc1ccc(C(=O)N2N=C(C)CC2(O)C(F)(F)F)cc1 (configuration not stated),0.13
O=C(NCc1ccncc1)C(=O)Nc1ccc(F)cc1,-0.23
CC(C)(C)C1CCc2onc(C(=O)Nc3cc(Br)ccc3O)c2C1 (configuration not stated),-1.5
Cc1cccc2oc(-c3cc(N=Cc4ccc(Br)cc4)ccc3O)nc12,-0.43
CC1=C(C(=O)OCCc2ccccc2)C(c2cccc3ccccc23)C2=C(CC(C)(C)CC2=O)N1 (configuration not stated),0.68
COc1cccc(C2C(C(=O)Nc3ccc(C)cc3C)=C(C)Nc3ncnn32)c1OC (configuration not stated),-0.52
CC1Cc2ccccc2N1S(=O)(=O)c1ccc(Cl)s1 (configuration not stated),0.02
Cn1c(=O)c2c(ncn2CC(=O)NC2CCCC2)n(C)c1=O,2
CCN(CC)C(=O)c1sc2ncnc(N3CCc4ccccc4C3)c2c1C,-0.96
C=CCSc1nnc2c(n1)OC(c1ccccc1)N(C(C)=O)c1ccccc1-2 (configuration not stated),0.67
COC(=O)c1cccc(NC(=O)CN2C(=O)c3ccccc3C2=O)c1,0.7
Cc1ccc(OC(=O)c2cc(S(=O)(=O)N3CCOCC3)ccc2Cl)cc1C,-0.08
Clc1ccc(SCc2cn3cccnc3n2)cc1,-1.1
Cc1ccc(NC(=O)c2cccc(N3C(=O)CCC3=O)c2)c(C(=O)c2ccccc2)c1,1.2
Cc1cc(N2CCN(C)CC2)nc2ccc(NC(=O)CCC3CCCC3)cc12,0.02
CCCCC(=O)Nc1c2c(nn1C(C)(C)C)CS(=O)C2 (configuration not stated),-1.6
CC(c1cccs1)N(Cc1ccco1)C(=O)Nc1ccccc1 (configuration not stated),-0.07
O=C(NC1CCCc2ccccc21)C(NS(=O)(=O)c1ccc(Br)s1)c1ccccc1 (configuration not stated),-0.47
O=C(CCn1nc(-c2ccc(Cl)cc2)ccc1=O)NCC1CCCO1 (configuration not stated),-0.15
O=C(COc1ccccc1)NS(=O)(=O)c1ccccc1,0.86
CCOc1ccccc1CNC(=O)c1cc(=O)[nH]c2ccc(S(=O)(=O)N3CCCCCC3)cc12,-0.52
CCOc1ccccc1C1NC(=O)NC(C)=C1C(=O)OCCSCC (configuration not stated),-0.2
NS(=O)(=O)c1ccc(NS(=O)(=O)c2ccc(Br)cc2)cc1,0.97
CCOC(=O)C1=C(N)Oc2ccc3ccccc3c2C1c1cccc([N+](=O)[O-])c1 (configuration not stated),-1.5
O=C(NC1CCCCC1)c1cc(S(=O)(=O)N2CCOCC2)ccc1Sc1ccc(Br)cc1,-1.2
O=C(Nc1ccc2c(c1)OCCOCCOCCOCCO2)Nc1ccc2c(c1)OCCOCCOCCOCCO2,-0.25
Cc1sc2nc(Cc3ccccc3)n(Cc3ccccc3Cl)c(=O)c2c1C,1
O=C(CSc1nnc(COc2ccccc2)o1)N1CCOCC1,-0.32
CCOC(=O)c1c(NC(=O)C(C(C)C)N2C(=O)c3ccccc3C2=O)sc2c1CCC2 (configuration not stated),0.76
CCC(C)Sc1nc2c(c(=O)n1-c1ccc(C)cc1)SCC2 (configuration not stated),2.5
Cc1ccc(C(=O)Nc2ccc(Br)cc2)cc1S(=O)(=O)Nc1ccccn1,-0.31
CCOc1cccc(C2CC(c3ccc4c(c3)OCO4)=NC(c3ccc(OC)c(Br)c3)N2)c1O (configuration not stated),-0.18
N#Cc1c(-c2ccc(Cl)cc2)cc(C2CC2)nc1SCC(=O)O,0.43
CCOc1ccc(-c2csc3nc(-c4ccc(F)cc4)oc(=O)c23)cc1,-0.55
CCc1ccc(C2=CC(c3ccc(OC)c(OC)c3)n3nnnc3N2)cc1 (configuration not stated),1.4
O=C(Cn1cnc([N+](=O)[O-])c1)c1ccccc1,-0.59
O=C(Nc1ccccc1I)c1cccc(C(=O)Nc2ccccc2I)c1,-0.57
Cc1cccc(NC(=O)C2CC(=O)NC(=Nc3ccccc3)S2)c1 (configuration not stated),0.85
O=C(CN1C(=O)CSc2ccc(S(=O)(=O)N3CCCCCC3)cc21)NC1CCCCCC1,-0.24
Cc1cccc(NC2SC(=O)NC2=O)c1 (configuration not stated),1.1
CCOC(=O)C1NN=C(C(=O)c2ccc(OC)cc2)C1c1ccccc1 (configuration not stated),-0.49
Cc1nn(CCCC(=O)Nc2ccc(OC(F)(F)F)cc2)c(C)c1[N+](=O)[O-],-0.03
CCOC(=O)c1cc(-c2ccccc2)sc1NC(=O)c1ccc(Br)cc1,-0.95
Cc1ccccc1C(=O)Nc1ccc2nc(N3CCCCC3)cc(C)c2c1,1.4
CCN=C1SC(CC(=O)Nc2ccc(N3CCOCC3)cc2)C(=O)N1CC (configuration not stated),0.18
C=C(C)Cn1c(NCc2ccco2)nc2c1c(=O)[nH]c(=O)n2C,2.7
O=C(OCCNc1nc(-c2ccccc2)nc2ccccc12)c1cccnc1,-0.28
O=c1c2ccc(Cl)cc2[nH]c(=S)n1Cc1ccccn1,-0.53
CCCCC1CCC(c2nn(CC(=O)O)c(=N)s2)CC1 (configuration not stated),-0.13
COc1ccccc1N1CCN(C(=O)c2ccc(CN3CCc4ccccc4C3)cc2)CC1,0.13
Cc1cc2oc(=O)cc(C)c2cc1[N+](=O)[O-],-0.06
O=C(Cn1nc(C(F)(F)F)c2c1CCC2)Nc1cccnc1Cl,1.1
COCCn1c(SCC(=O)N2CCOCC2)nc2c(c1=O)SC(C)C2 (configuration not stated),-0.49
CCOC(=O)CN(Cc1ccc(Cl)cc1)S(=O)(=O)c1ccc(Cl)cc1,-0.02
c1ccc(Nc2nc(-c3ccccc3)nc3ccccc23)cc1,-0.53
CC(=O)Nc1ccc(S(=O)(=O)Nc2cc([N+](=O)[O-])ccc2C)cc1,-0.58
CC(=O)N1CCc2cc(Br)cc(S(=O)(=O)CCC(=O)N3CCN(c4ncccn4)CC3)c21,0.03
COc1ccc(OC)c(CNC(=O)c2cc(=O)[nH]c3ccc(S(=O)(=O)N4CCCCC4C)cc23)c1 (configuration not stated),0.14

(continued)
Compound,Measles inh
Cc1cccn2c(=O)c3cc(C(=O)NCCc4ccccc4)sc3nc12,1.9
CCc1ccc(NC(=O)CC(C)(C)CC2=NS(=O)(=O)c3ccccc3N2)cc1,0.02
COc1ccc(S(=O)(=O)N2CCN(CC(=O)Nc3ccc(OC)cc3OC)CC2)cc1,0.98
O=C(NCc1ccc2c(c1)OCO2)c1ccc(Br)o1,0.07
Cc1cccc(CSc2nc3c(c(=O)n2-c2ccc(Cl)cc2)SCC3)c1,-0.82
O=C1C2C3CCCC3=C3CCCC3C2C(=O)N1c1ccc(F)cc1 (configuration not stated),0.75
COCCCN1C(=S)NC2c3ccccc3OC1(C)C2C(=O)Nc1ccc(C)cc1C (configuration not stated),0.03
CCc1ccccc1Nc1cc(C(=O)NCc2ccco2)c2ccccc2n1,-0.73
Cc1nc2c(ccc3nc(NC(=O)c4ccc(S(=O)(=O)N(C)C5CCCCC5)cc4)sc32)s1,-0.07
COc1ccc(C2Nc3ccc4ccccc4c3C3=C2C(=O)CC(C)(C)C3)c(OC)c1OC (configuration not stated),0.8
Cc1c(C(=O)OCCOc2ccc(Br)cc2)sc(=S)n1C,-0.14
Cc1cccc(NC(=O)c2ccc([N+](=O)[O-])o2)c1,-0.86
COc1ccc(C)cc1NC(=O)CCS(=O)(=O)c1cccc2nonc12,-0.52
CCOC(=O)C1=C(N)N(c2ccccc2)C2=C(C(=O)CC(C)(C)C2)C1c1cc(OC)c(OC)c(OC)c1 (configuration not stated),-0.19
Cc1c(C)c2cc3c4c(oc3cc2oc1=O)CCCC4,-0.7
O=C(NCc1ccccc1)c1c(O)c2cccc3c2n(c1=O)CC3,-0.97
CC1CCC2C(=O)N(c3ccc(N4CC5(C)CC4CC(C)(C)C5)c([N+](=O)[O-])c3)C(=O)C2C1 (configuration not stated),-1.6
Cc1ccccc1OC1C(=O)N(c2ccc(F)cc2)C1c1ccc2c(c1)OCO2 (configuration not stated),0.3
Cc1nc(-c2c(C(F)(F)F)oc3c(C)c(C)ccc3c2=O)cs1,1.1
CC1CCCN(C(=O)CCNC(=O)Cn2ccc3ccccc3c2=O)C1 (configuration not stated),1
Cc1cc(C)nc(NS(=O)(=O)c2ccc(Cl)cc2)n1,-0.3
O=C(CN1C(=O)C2C3C=CC(C3)C2C1=O)N1CCN(C2CCCCC2)CC1 (configuration not stated),0.25
Cc1ccc(NC(=O)Cn2c(=O)n(CCC(=O)N3CCc4ccccc4C3)c(=O)c3ccccc32)cc1,-0.57
O=C(Nc1ccc(O)cc1)c1scc2c1CCCC2,-1.4
O=C(C1CC1)N1CCc2cc(S(=O)(=O)N3CCN(C(c4ccccc4)c4ccc(Cl)cc4)CC3)ccc21 (configuration not stated),-0.75
CC1CCCCC1NC(=O)Cn1nc(-c2ccccc2)ccc1=O (configuration not stated),0.41
Fc1ccc(-c2cc(C(F)(F)F)nc(NCC3CCCO3)n2)cc1 (configuration not stated),1.1
C=CCSc1nc2c(c(=O)[nH]c(=O)n2C)n1CCCC,-0.83
Cc1cc(Cl)ccc1OCC(=O)Nc1nc(-c2ccc(Br)cc2)cs1,0.37
O=S(=O)(Nc1cc(Cl)c(O)c2ccccc12)c1cccs1,1.5
O=C1C(=O)N(CCCN2CCOCC2)C(c2ccco2)/C1=C(\O)c1ccc(F)cc1 (configuration not stated),1.4
CSc1nnc2c(n1)OC(c1ccc(Cl)c([N+](=O)[O-])c1)Nc1ccccc1-2 (configuration not stated),0.22
CC(=O)NC(=O)c1cc2ccccc2oc1=Nc1ccc(C)cc1,0.09
COc1cc(C2NC(=O)NC(C)=C2C(=O)OC(C)(C)C)ccc1O (configuration not stated),-1
CCOC(=O)C1=NNC2C(=O)N(c3c(C)cc(C)cc3C)C(=O)C12 (configuration not stated),1.8
COCCCNC(=O)C1CCC(=O)N(c2ccc3c(c2)OCO3)C1c1ccc(OC)cc1 (configuration not stated),-0.58
NC1=NC(c2ccccc2)N(c2ccccc2)C(N)=N1 (configuration not stated),1.2
CCC1=NN(C(=O)c2ccc(Br)cc2)C(O)(C(F)(F)F)C1 (configuration not stated),-0.83
Cn1c(=O)cc(SCC(=O)NCCCN2CCOCC2)c2ccccc21,1.1
CC(C)(C)c1ccc(OCC(=O)Nc2cccc3nsnc23)cc1,-0.41
O=C(NCCC1=CCCCC1)C1CCC(Cn2c(=S)[nH]c3ccsc3c2=O)CC1 (configuration not stated),0.18
Cc1ccc(C)c(NC(=O)C(C)(C)C)c1,0.87
COc1ccc(CNC(=O)CCn2c(=O)c3sccc3n(Cc3cc(=O)n4ccccc4n3)c2=O)cc1,-0.45
O=c1cc(CSc2nc(NCc3ccco3)c3ccccc3n2)nc2ccc(Cl)cn12,1.2
C=CCn1c(C(C)NC(=O)Cc2ccccc2)nc2ccccc21 (configuration not stated),-0.46
CCCN(CCC)S(=O)(=O)c1cc(Br)cc2c1N(C(=O)CC)CC2,-0.68
COc1ccc(NCC(O)Cn2c3ccc(Cl)cc3c3cc(Cl)ccc32)c(OC)c1 (configuration not stated),-1.9
Cc1ccccc1NC(=O)c1cccc(N2C(=O)C3CCCCC3C2=O)c1 (configuration not stated),0.67
Cn1c(=O)cc(SCC(=O)NCC2CCCO2)c2ccc(Cl)cc21 (configuration not stated),0.43
CC(=O)Oc1cn(C(C)=O)c2ccc(Br)cc12,-0.06
COc1cccc(CN2CCN(C(=O)CC(C)C)CC2)c1OC,1.1
Cc1cc(C)n2nc(CC(=O)NC3CCCC(C)C3C)nc2n1 (configuration not stated),-0.67
CCC(=O)N1CCc2cc(S(=O)(=O)N3CCCCC3CC)ccc21 (configuration not stated),-1.9
COC(=O)CSc1nc(C)c(C(C)=O)cc1C#N,-0.22
CCN(CCNC(=O)CN1C(=O)COc2ccccc21)c1ccccc1,-0.37
CCOc1ccc(NC(=O)CSc2nc(N)cc(=O)[nH]2)cc1,-0.52

Entries from the list above containing fluorine, in the order listed:
Compound,Measles inh
O=C(NCc1n[nH]c(=S)n1-c1cccc(Cl)c1)c1ccccc1F,-0.74
CCCCOc1ccc(C(=O)N2N=C(C)CC2(O)C(F)(F)F)cc1 (configuration not stated),0.13
O=C(NCc1ccncc1)C(=O)Nc1ccc(F)cc1,-0.23
CCOc1ccc(-c2csc3nc(-c4ccc(F)cc4)oc(=O)c23)cc1,-0.55
Cc1nn(CCCC(=O)Nc2ccc(OC(F)(F)F)cc2)c(C)c1[N+](=O)[O-],-0.03
O=C(Cn1nc(C(F)(F)F)c2c1CCC2)Nc1cccnc1Cl,1.1
O=C1C2C3CCCC3=C3CCCC3C2C(=O)N1c1ccc(F)cc1 (configuration not stated),0.75
Cc1ccccc1OC1C(=O)N(c2ccc(F)cc2)C1c1ccc2c(c1)OCO2 (configuration not stated),0.3
Cc1nc(-c2c(C(F)(F)F)oc3c(C)c(C)ccc3c2=O)cs1,1.1
Fc1ccc(-c2cc(C(F)(F)F)nc(NCC3CCCO3)n2)cc1 (configuration not stated),1.1
O=C1C(=O)N(CCCN2CCOCC2)C(c2ccco2)/C1=C(\O)c1ccc(F)cc1 (configuration not stated),1.4
CCC1=NN(C(=O)c2ccc(Br)cc2)C(O)(C(F)(F)F)C1 (configuration not stated),-0.83

Assay outcomes: PubChem, Emory University Molecular Libraries Screening Center
